# Yeast UUG start – modulators of yeast start codon fidelity, primary screen, whole organism, S. cerevisiae, single point, plate reader; 0.13% of 350,000 active; activity score, % at 18.7 µM; AID 602363, 2012; S. cerevisiae UUG-firefly luciferase reporter, luminescence/redox ratio;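 active = replicate mean at a twofold rise or more, about +100% in these data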;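 also: firefly luciferase made from a UUG start codon reports start codon fidelity; reporter light over untreated wells divided by growth signal over untreated wells; some hits fall short of that in this replicate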
# Rce1 inh – yeast Rce1p protease inhibitors, primary screen, biochemical, fluorescence, cell-free homogeneous; 0.27% of 290,000 active; CAAX prenyl protease 2 (Saccharomyces cerevisiae (strain ATCC 204508 / S288c)), Q03530; calls only; yeast membranes, quenched prenylated peptide cleavage fluorescence;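 active = fall in fluorescence gain of 50% or more versus controls, with final raw signal at or below 3038400; inconclusive = same 50% fall but final raw signal above 3038400; inactive = fall in fluorescence gain under 50%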;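 also: plate controls were neutral control wells for no effect and wells lacking membranes for full effect; tested at 10 µM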
# Target sequence (Q03530 whole entry, looked up): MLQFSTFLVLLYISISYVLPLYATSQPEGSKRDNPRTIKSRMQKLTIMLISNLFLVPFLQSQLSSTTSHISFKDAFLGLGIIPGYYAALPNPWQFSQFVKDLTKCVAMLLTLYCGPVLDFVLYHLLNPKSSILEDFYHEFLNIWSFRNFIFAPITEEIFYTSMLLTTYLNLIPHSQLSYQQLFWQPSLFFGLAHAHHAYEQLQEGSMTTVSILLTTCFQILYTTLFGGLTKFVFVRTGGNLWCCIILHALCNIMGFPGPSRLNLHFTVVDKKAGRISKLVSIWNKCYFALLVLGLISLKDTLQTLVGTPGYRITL
# PABP FP inh – PABP poly(A) RNA binding inhibitors, primary screen, biochemical, fluorescence polarization, uHTS; Polyadenylate-binding protein 1 (Homo sapiens), P11940; inhibition, % at 35 µM; 1% of 290,000 active; AID 2014, 2009;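 active = 50% or more with normal probe brightness, or confirmed in later tests; inconclusive = above 50% with abnormal brightness, or retests that disagree; inactive = below 50% or failed in later tests; about a fifth of its hits are not listed in these tables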;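 also: calls also rest on retests at 20 µM and on dose response follow-up; controls were probe without protein and protein plus probe with vehicle; some compounds called inactive have numbers as strong as hits; many hits fall short of the cut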
# Target sequence (P11940 whole entry, looked up): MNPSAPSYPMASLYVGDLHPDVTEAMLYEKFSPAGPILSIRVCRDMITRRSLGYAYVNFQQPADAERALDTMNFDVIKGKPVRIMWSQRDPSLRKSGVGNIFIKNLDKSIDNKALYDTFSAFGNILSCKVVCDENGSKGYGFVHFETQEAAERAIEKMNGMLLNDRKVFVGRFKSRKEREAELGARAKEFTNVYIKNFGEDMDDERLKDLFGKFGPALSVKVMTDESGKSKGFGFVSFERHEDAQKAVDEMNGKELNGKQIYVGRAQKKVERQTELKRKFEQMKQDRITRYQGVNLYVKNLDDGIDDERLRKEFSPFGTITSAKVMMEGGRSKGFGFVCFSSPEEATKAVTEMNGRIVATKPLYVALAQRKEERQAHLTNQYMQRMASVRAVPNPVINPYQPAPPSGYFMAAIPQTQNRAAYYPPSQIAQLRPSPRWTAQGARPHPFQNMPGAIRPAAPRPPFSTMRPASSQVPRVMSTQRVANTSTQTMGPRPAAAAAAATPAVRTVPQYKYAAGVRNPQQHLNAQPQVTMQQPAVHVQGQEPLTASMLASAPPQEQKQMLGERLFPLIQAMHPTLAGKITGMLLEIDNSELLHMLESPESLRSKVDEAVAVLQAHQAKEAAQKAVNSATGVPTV
# HIV Env fusion – inhibitors of HIV-1 Env-driven cell-cell fusion, primary screen, HeLa-JRFL effector, CEM21 target cells, luciferase; AID 651610, 2012; 1.1% of 360,000 active; inhibition, % at 12.3 µM;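 active = mean replicate inhibition score of at least 50 and every replicate individually at or above 50; inconclusive = only one of the two criteria met; inactive = mean below 50 and not all replicates reaching 50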;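 also: 0% = plate neutral controls and 100% = maraviroc near 300 nM; one replicate is shown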
# MT1-MMP act inh – blockers of MT1-MMP proenzyme processing, primary screen, HT1080 RFP-PRO-GFP cells, GFP/RFP fluorescence; Matrix metalloproteinase-14 (Homo sapiens), P50281; GFP/RFP ratio change, % at 20 µM; GFP/RFP ratio fluorescence, overnight; percent of plate control window, DMSO zero; 0.061% of 360,000 active;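 active = GFP/RFP ratio change of at least 30% with cell ATP level not reduced by more than half and red fluorescence within 50% of control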; also: strong numbers were not always called active
#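 Material: RFP-PRO-GFP reporter HT1080 cells. Dosing: single-point 20 µM compound, 1% DMSO. Controls: DMSO and RFP-L50D-GFP cell wells. Timing: cells overnight before dosing, compound overnight, 37 °C, 5% CO2. Measure: GFP/RFP fluorescence ratio.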
# eIF4H FP inh – human eIF4H binding inhibitors, primary screen, translation initiation inhibitor project, biochemical, uHTS, fluorescence polarization | Eukaryotic translation initiation factor 4H (Homo sapiens), Q15056 | 0.94% of 290,000 active | eIF4H fluorescence polarization binding assay | inhibition, % at 35 µM;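 active = 50% or more with normal probe brightness, or confirmed in later tests; inconclusive = above 50% with abnormal brightness, or retests that disagree; inactive = below 50% or failed in later tests; about a fifth of its hits are not listed in these tables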;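 also: calls also rest on retests at 20 µM and on dose response follow-up; 0% = protein and probe with vehicle and 100% = probe without protein; strong numbers were not always called active; many hits fall short of the cut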
# CSC inhib – cancer stem cell viability inhibitors, primary screen, luminescence | 1.1% of 300,000 active | cancer stem cell-like cells viability | inhibition, % at 7.5 µM | AID 2717, 2010;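 active = mean at 75% or more and at least half the replicates too; inconclusive = mean and replicates disagree; tested in HMLE shEcad cells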;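 also: 0% = median of negative and 100% = median of positive control wells; the first replicate is given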
# eIF4H FP inh retest – further read-out of eIF4H FP inh, marked with its call; inhibition, %; compound at 20 µM; confirmation average;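 mean of two retest wells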
# PABP FP inh retest – recorded beside PABP FP inh, whose call it bears; inhibition, %; compound at 20 µM; confirmation repeats;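 mean of two retest wells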
# MT1-MMP act inh RFP – second read-out of MT1-MMP act inh, no call of its own (marks repeat the call); RFP signal change, %; measured here: RFP expression control read;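 0 = vehicle wells; hits needed this value within 50% of zero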
# * hit, by the source's call; i = inactive; ? = inconclusive; · = no result given; + = active, no number; & = joins results of further samples; [ ] = another dose, or the depositor's remark.
SMILES,Yeast UUG start,Rce1 inh,PABP FP inh,HIV Env fusion,MT1-MMP act inh,MT1-MMP act inh RFP,eIF4H FP inh,CSC inhib,others
O=C(COc1ccc(/C=N/NC(=O)c2ccc(O)cc2)cc1)Nc1cccc([N+](=O)[O-])c1,·,i,-1,-5,1,0,-27,-3,
COc1ccc2cc(CN(CC3CCCO3)S(=O)(=O)c3ccccc3Cl)c(=O)[nH]c2c1 (stereo unspecified),-7,i,5,·,2,-1,-10,-8,
C=C1CCN(C(Cc2ccccc2)C(=O)OC)S(=O)(=O)c2ccc(F)cc21 (stereo unspecified),-14,i,0,17,-5,-2,-14,-3,
Cc1ccccc1NC(=O)CSc1nnc(C)c(=O)[nH]1,·,i,4,6,-2,-1,-5,·,
CCCCCC(=O)Nc1ccc(N2CCOCC2)c(S(=O)(=O)Nc2ccc(OC)cc2)c1,·,i,·,·,3,-3,·,-7,
Cc1ccc(NS(=O)(=O)c2ccc(NC(=O)c3ccccc3C(=O)O)cc2)c(C)c1,·,i,·,?,2,2,·,-6,
CC1=NNC(=O)C1C(c1ccc(Cl)cc1)C(C#N)C#N (stereo unspecified),-16,i,7,-8,-2,-1,-10,-12,
Cc1cc(NC(=O)c2cc(-c3cccs3)on2)nn1Cc1ccc(Cl)cc1,7,i,-1,10,0,-12,-2,·,
COc1ccc(/C=C2\Sc3ccc(C(=O)N4CCOCC4)cc3N(C)C2=O)cc1,-5,i,-2,-3,-1,-3,-4,-1,
COc1ccc(-c2cc(=O)oc3c(C)c(OC(=O)c4cccs4)ccc23)cc1,-3,i,-6,15,-20,-13,-4,13,
Cc1ccc(-c2c[n+](CC(=O)Nc3nc(-c4ccccc4)cs3)c3n2CCC3)cc1,·,i,-13,7,-6,-14,-7,2,
C/C(=N\OCc1nc2ccccc2c(=O)n1/N=C/c1cc(C)cc([N+](=O)[O-])c1O)c1ccccc1,-2,i,20,3,-1,5,30,35,
O=C(COC(=O)/C=C/c1ccccc1[N+](=O)[O-])NNC(=O)c1ccc(F)cc1,-6,·,·,2,2,2,·,·,
COc1ccc(NC(=O)C2=CC(c3ccc(OC)cc3)=NS(=O)(=O)N2C)cc1,1,i,-7,20,-1,-4,4,-2,
CCCCN(C)Cc1c(C)[nH]c2ccc(Cl)cc2c1=O,-2,i,11,·,5,6,12,-6,

# The last two compounds of the part above come first, to join the parts.
SMILES,Yeast UUG start,Rce1 inh,PABP FP inh,HIV Env fusion,MT1-MMP act inh,MT1-MMP act inh RFP,eIF4H FP inh,CSC inhib,others
COc1ccc(NC(=O)C2=CC(c3ccc(OC)cc3)=NS(=O)(=O)N2C)cc1,1,i,-7,20,-1,-4,4,-2,
CCCCN(C)Cc1c(C)[nH]c2ccc(Cl)cc2c1=O,-2,i,11,·,5,6,12,-6,
Cn1c(Cn2c(=O)sc3ccccc32)nnc1SCC(=O)NCCc1ccccc1,-17,i,-2,-4,2,-1,0,16,
COc1ccc(NC(=O)N(C)C[C@H]2Oc3c(NC(=O)c4nc5ccccc5s4)cccc3C(=O)N([C@@H](C)CO)C[C@H]2C)cc1,-1&-3,·,·,-26[16.7 µM],3,-1,·,-16,
Cc1cc(NC(=O)CSc2nc3ccccc3c(=O)n2C2CCCC2)no1,-22,i,2,-100,6,-11,5,62,
c1cc(-c2ccoc2)n2ccnc2c1,-6,·,·,7,-3,10,·,·,
COC(=O)c1cn(C(=O)c2ccc(C)cc2C)c2ccccc12,·,i,-12,-177,-9,-18,-3,62,
O=C(O)CSC(C(=O)Nc1ccc(Br)cc1)c1ccccc1 (stereo unspecified),·,i,-4,-16,-3,0,-8,-11,
N#CCC(=O)Nc1ccc(C(=O)OCC(=O)Nc2ccccc2Sc2ccccc2)cc1,·,i,-3,10,-3,-4,4,-12,
CC(NC(=O)Cc1ccc(S(=O)(=O)N2CCOCC2)s1)c1ccc(Cl)c(Cl)c1 (stereo unspecified),0,i,·,30,-4,-4,·,-7,
CC(NC(=O)c1ccc(C#N)cc1)C1CC2CCC1C2 (stereo unspecified),2,i,6,7,4,0,7,-3,
COc1ccc(C(O)c2nc(-c3ccc(F)c(Cl)c3)cs2)cc1 (stereo unspecified),-3,·,·,-8,2,0,·,·,
COc1ccc(Cc2nc3c4c(ncn3n2)Oc2c(ccc3ccccc23)C4c2ccc(OC)c(OC)c2)cc1 (stereo unspecified),·,i,-4,-16,-1,-2,2,-1,
Cc1ccc(/C=C/C(=O)O)cc1S(=O)(=O)N(C)CCO,·,i,-8,-2,6,5,8,1,
C(#Cc1ccccc1)Cn1nnc2ccccc21,-17,i,9,·,-1,-4,1,1,
CNC(=S)N1CCN(c2cccc(OC)c2)CC1,-12,i,0,-68,2,5,-3,12,
COc1ccc(C)cc1NC(=O)CSc1ccc(-c2cccnc2)nn1,2,i,6,13,-3,-4,0,0,
CCc1nnc(NS(=O)(=O)c2ccc(N=Cc3c(C)[nH]n(-c4ccc(C)c(C)c4)c3=O)cc2)s1,-21,i,22,-8,5,1,-17,6,
CCN(CC)S(=O)(=O)c1ccc(N2CCCC2)c(NS(=O)(=O)c2cccs2)c1,·,i,5,13,0,3,9,-10,
CCCn1c(N)c(Sc2ccccc2[N+](=O)[O-])c(=O)n(CCC)c1=O,-21,i,-4,14,2,0,-3,·,
CCc1nc2ccc(C(=O)Nc3cccc(OC)c3)cn2c1N(C)CCCc1ccccc1,-10,·,·,19,1,-2,·,·,
CC(C)(C)C(=O)Nc1cccc(OC(F)(F)C(F)Cl)c1 (stereo unspecified),-1,i,2,1,-1,-3,-5,-2,
CCCCC(CC)CNC(=O)c1ncn[nH]1 (stereo unspecified),-10,i,38,-5,3,5,3,1,
COCCN(C(=O)COC(=O)Cc1coc2cc3c(cc12)CCC3)c1c(N)n(Cc2ccccc2)c(=O)[nH]c1=O,0,i,·,-40,0,-2,·,7,
CC1CCCCN1C(=O)CSc1nc(C2CC2)nc2ccccc12 (stereo unspecified),-3,i,2,24,-9,-6,-4,·,
Cc1nc2c(C(=O)NCc3ccc4c(c3)OCO4)c[nH]n2c(=O)c1Cl,-5,i,10,·,-8,2,8,-9,
CCCCn1c(N)c(N(CC(C)C)C(=O)CN(C)S(=O)(=O)c2ccc(F)cc2)c(=O)[nH]c1=O,-4,i,·,1,0,2,·,5,
O=C(COc1ccccc1)NCC(=O)Nc1ccc(S(=O)(=O)NCc2ccco2)cc1,1,i,12,·,1,0,4,2,
CC1CCN(C(=O)CCCNC(=O)Cn2cnc3sc4c(c3c2=O)CCCC4)CC1,8,i,-4,-57,4,4,-6,5,
CC(C)CSc1nnc2c3ccccc3n(C)c2n1,-29,i,-1,-29,0,-2,10,-3,
Nc1nc(Cl)nc2c1ncn2C1CC(O)C(CO)O1 (stereo unspecified),-21,i,·,16,-13,-6,·,74,
COc1ccc(C2CC(O)(c3ccccc3)Oc3cc(OC)cc(OC)c32)cc1 (stereo unspecified),-15,i,2,-24,-2,-4,-1,·,
CCN(CC)c1ccc(NC(=O)CSC(=O)c2ccccc2)cc1,-12,·,·,·,7,1,·,15,
CN(C)c1ccc(/C=N/c2cc(-c3ccccc3)nn2-c2ccccc2)cc1,-2,i,-4,-106,-3,2,-1,17,
COc1ccccc1C1C(C(=O)c2cc3ccccc3o2)=C(O)C(=O)N1c1cc(C)on1 (stereo unspecified),-18,i,-2,12,3,4,7,2,
CC1CCCN(S(=O)(=O)c2cc(C(=O)NCc3ccco3)ccc2Cl)C1 (stereo unspecified),11,·,·,·,6,-7,·,-3,
COc1cccc(CNc2nc3nc(C)cc(C)n3n2)c1,·,+,-4,22,-6,3,-14,-7,
O=C(CCC1CC(=O)Nc2ccccc21)NCc1ccccc1 (stereo unspecified),-9,i,5,·,3,3,4,21,
C/C(=N\NC(=O)c1cc(C)nc2ccccc12)c1ccco1,-21,i,-4,-4,5,1,-9,2,
O=C(c1cc(COc2cccc(C(F)(F)F)c2)on1)N1CCSCC1,-20,i,0,·,3,-2,-5,-8,
Cc1ccc(Cl)c(OC(=O)c2ccc(N3CCOCC3)c([N+](=O)[O-])c2)c1,·,i,-19,-49,2,6,5,2,
Cc1ccc(NCc2nnc(SCC(=O)N3CCCCC3)n2CC2CCCO2)c(C)c1 (stereo unspecified),-6,i,·,-101,2,3,·,-18,
O=C(NCc1ccc2c(c1)OCO2)c1c[nH]c2ccc(S(=O)(=O)N3CCOCC3)cc2c1=O,-7,i,12,-24,4,4,-11,-9,
O=C(Nc1ccccc1)c1nnsc1S(=O)(=O)c1ccc(Cl)cc1,-29,i,1,·,1,3,7,28,
CC1=C/C(=C/N(C)C)C(=O)O1,·,i,8,24,-4,5,34,3,
Cc1ccccc1OCC(=O)Nc1cccc(NC(=O)c2ccco2)c1,-4,i,-8,·,-1,-5,-3,-18,
COC(=O)CCCC1=CC2=CC(=O)C(C)(OC(=O)c3cccs3)C(=O)C2=CN1CCCOC(C)C (stereo unspecified),-5,i,29*,16,9,9,61,-16,eIF4H FP inh retest=25;PABP FP inh retest=56*
COc1ccc2cc(C(=O)NC3CCCCC3)c(=O)oc2c1,-13,i,-2,·,5,5,2,·,
CCCc1[nH]n(-c2nc3ccccc3s2)c(=O)c1C=NCCN1CCOCC1,-33,i,-11,-32,5,2,-14,·,
Cc1nn(-c2ccccc2)c2[nH]c(=O)c(CNCc3ccc4c(c3)OCO4)cc12,0,i,11,·,-10,-6,11,·,
NNC(=O)c1nnn(-c2nonc2N)c1-c1cccs1,-14,i,-6,-18,-3,5,-7,-17,
CCn1c(=NC(=O)CN2C(=O)CCC2=O)sc2c(C)cc(C)cc21,-21,·,7,43,6,3,-5,·,
CCc1ccc(Nc2nnc(SC3CCOC3=O)s2)cc1 (stereo unspecified),·,i,22,5,4,4,-9,-8,
COc1cc2cc(C(=O)N(C)C3CCS(=O)(=O)C3)[nH]c2cc1OC (stereo unspecified),-9,i,5,-4,0,-1,-18,-2,
COc1ccc(Cl)cc1NC(=O)CCn1cnc2ccccc2c1=O,6,i,-15,·,4,2,5,0,
Cn1c(=O)c2[nH]c(-c3cccnc3)nc2n(C)c1=O,-14,i,8,-55,-2,-2,-1,-1,
Cc1cc(C)c(C#N)c(N2CCN(Cc3ccc4c(c3)OCO4)CC2)n1,4,i,3,14,-4,-1,-1,-2,
COc1ccc(C)cc1N(C)C(=O)Cc1c(C(=O)O)n(C)c2ccccc12,-4,i,-2,3,-3,3,1,-4,
CCOc1ccc(OCCCC(=O)N(CC)CC(=O)Nc2c(F)cccc2F)cc1,4,·,·,-7,-4,-4,·,·,
COc1ccc(C)cc1NC(=O)CN1C(=O)COc2ccc(S(=O)(=O)N3CCOCC3)cc21,-21,+,·,-1,0,2,·,-30,
Cc1cccc(NC(=O)CSc2nnc(C)c(=O)n2N)c1C,-9,i,-7,16,4,3,0,-11,
